PrP UTR inh: suppresses PrP 5' UTR mRNA reporter expression; cell-based PrP 5' UTR mRNA reporter, plate reader; inhibition, % (test concentration not listed); 340,000 tested, 0.35% active; AID 488862;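 active = every replicate at 50% or more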;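 note: 0 = median of the neutral control wells; tested in H4 reporter cells; numbers are from one replicate; inactives centre near -14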
Sa ugtP lethal: kills S. aureus RN4220 lacking UgtP. S. aureus RN4220 ugtP deletion, OD600 growth, 16 h; some inactives read as strong as hits. growth inhibition, % (test concentration not listed). 330,000 tested, 0.54% active. AID 1259309;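 active = z-score under -3 and OD600 up to 0.15 on both plates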;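 note: plate controls were untreated wells for no effect and antibiotic for full effect; wells of about 80 µL received 100 nL stock; the first replicate is given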
Mtb hypoxia inh: reduces hypoxia-regulated biosensor signal in M. tuberculosis. M. tuberculosis hypoxia-regulated fluorescent reporter, fluorescence. fluorescence inhibition, % (no concentration beside the values). 300,000 tested, 0.1% active. AID 1159583;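 active = 35 to 45% if threefold the growth effect, above 45% if 1.5-fold the growth effect; inactive = the rest, general growth blockers included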;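 note: wells of about 50 µL received 100 nL stock; 0% = vehicle wells and 100% = reference inhibitor wells; whole bacteria with a GFP reporter of the hypoxia response; strong numbers were not always called active; many hits fall short of the cut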
BJeLR lethal: BJeLR cell viability loss | BJeLR (HRASV12) viability, CellTiter-Glo ATP luminescence, 48 h; reference of the scale not given here | inhibition, % (no concentration beside the values) | 300,000 tested, 0.17% active;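 active = replicate mean above 50%; inconclusive = above 50% but judged a plate artefact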;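 note: 50 nL library stock added to about 25 µL; numbers are from one replicate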
Sa RN4220 lethal: kills Staphylococcus aureus RN4220 | S. aureus RN4220 growth, OD600, 16 h | inhibition, % (concentration not given with the values) | 330,000 tested, 0.33% active;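 active = z-score of -3 or lower and OD600 up to 0.18 on both plates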;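 note: plate controls were untreated cells for no effect and reference antibiotic for full effect; stock transfer was 100 nL into about 80 µL; one replicate is shown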
Bead autofluor: compound fluorescence in toxin protease inhibitor counterscreen. compound autofluorescence counterscreen, microsphere flow cytometry; active compounds read high. AID 624483. 360,000 tested, 3.1% active. fluorescence intensity (test concentration not listed);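 active = at least 3 SD above the mean of all compounds, about 16000 in these data; inconclusive = too few beads counted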;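 note: 100 nL of 1 mM stock went into each well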
Mtb hypoxia inh growth: recorded beside Mtb hypoxia inh, whose call it bears; growth inhibition, %; measured here: M. tuberculosis growth (absorbance);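 0% = vehicle and 100% = reference antibiotic; read after six days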
An asterisk follows results filed as active; u = inconclusive; x = not tested or not shown.

Start of the data: the first 18 compounds (preview)
SMILES	PrP UTR inh	Sa ugtP lethal	Mtb hypoxia inh	Mtb hypoxia inh growth	BJeLR lethal	Sa RN4220 lethal	Bead autofluor
CCOC(=O)c1c(C)[nH]c(C(=O)N/N=C/c2ccc(OC)c(OC)c2)c1C	-2	x	x	x	4	x	5029
O=C(Nc1ccc(N2CCOCC2)c(Cl)c1)c1ccc(-n2cnnc2)cc1	-19	2	12	4	0	3.8	5926
COc1ccc(N2CCN(C(=O)CN(c3cccc(Br)c3)S(C)(=O)=O)CC2)cc1	-4	5	5	13	-19	2.4	9707
O=C(Cc1ccccc1F)OCC(=O)N1CCN(C(=O)c2ccco2)CC1	-17	6	6	5	-8	5.8	2527
Nc1ccc2nc(CCCCCCc3nc4ccc(N)cc4[nH]3)[nH]c2c1	-13	-4	0	-8	x	0.3	2513
COc1cc(C(=O)OCC(=O)Nc2ccc(SC(F)F)cc2)cc(OC)c1OC	-7	x	x	x	8	x	2090
CCc1cc(C(c2ccc(OC)c(OC)c2)N2CCOCC2)c(NC(=O)c2ccccc2)s1 (stereo not drawn)	12	9	-4	1	-19	8.6	1990
CSc1cccc(NC(=O)Cn2cnc(S(=O)(=O)N3CCCC3)c2)c1	-23	6	4	-2	6	1.6	5829
Clc1ccc(Cn2ccnc2)cn1	0	-4	-5	-5	-1	-0.3	4128
CN(C)S(=O)(=O)c1ccc(C(=O)NC(=O)CSc2ccccc2)cc1	2	2	4	-1	-2	0.2	2581
S=c1[nH]nc(-c2cccs2)n1/N=C/c1cn(-c2ccccc2)nc1-c1ccc(Cl)cc1	-11	x	x	x	5	x	3674
CC(=NNC(=O)c1ccc(Br)cc1)c1cccnc1	x	1	6	3	x	2.6	x
CC(C)(C)c1ccc(CS(=O)CC(O)CO)cc1 (stereo not drawn)	-6	8	0	1	0	7.6	2145
Cc1ccsc1C(=O)OCC(=O)Nc1ccc(Cl)cn1	-36	6	11	-1	x	12	5695
CC(OC(=O)c1cc(S(=O)(=O)N2CCOCC2)ccc1F)C(=O)NC1CCCC1 (stereo not drawn)	-16	4	7	1	x	3.7	3454
COc1ccc(N(C)C(=S)Nc2ccc3nc(C)c(C)nc3c2)cc1	-17	0	5	13	-3	3.9	2681
Nc1nnc(SCC(=O)Nc2ccc(N3CCOCC3)cc2)s1	-20	4	1	-3	1	1.8	x
CCOC(=O)N1CCN(CC(O)COc2ccccc2C(C)CC)CC1 (stereo not drawn)	-24	-2	x	x	-7	1.8	2343

The whole of this part, repeating the preview:
SMILES	PrP UTR inh	Sa ugtP lethal	Mtb hypoxia inh	Mtb hypoxia inh growth	BJeLR lethal	Sa RN4220 lethal	Bead autofluor
CCOC(=O)c1c(C)[nH]c(C(=O)N/N=C/c2ccc(OC)c(OC)c2)c1C	-2	x	x	x	4	x	5029
O=C(Nc1ccc(N2CCOCC2)c(Cl)c1)c1ccc(-n2cnnc2)cc1	-19	2	12	4	0	3.8	5926
COc1ccc(N2CCN(C(=O)CN(c3cccc(Br)c3)S(C)(=O)=O)CC2)cc1	-4	5	5	13	-19	2.4	9707
O=C(Cc1ccccc1F)OCC(=O)N1CCN(C(=O)c2ccco2)CC1	-17	6	6	5	-8	5.8	2527
Nc1ccc2nc(CCCCCCc3nc4ccc(N)cc4[nH]3)[nH]c2c1	-13	-4	0	-8	x	0.3	2513
COc1cc(C(=O)OCC(=O)Nc2ccc(SC(F)F)cc2)cc(OC)c1OC	-7	x	x	x	8	x	2090
CCc1cc(C(c2ccc(OC)c(OC)c2)N2CCOCC2)c(NC(=O)c2ccccc2)s1 (stereo not drawn)	12	9	-4	1	-19	8.6	1990
CSc1cccc(NC(=O)Cn2cnc(S(=O)(=O)N3CCCC3)c2)c1	-23	6	4	-2	6	1.6	5829
Clc1ccc(Cn2ccnc2)cn1	0	-4	-5	-5	-1	-0.3	4128
CN(C)S(=O)(=O)c1ccc(C(=O)NC(=O)CSc2ccccc2)cc1	2	2	4	-1	-2	0.2	2581
S=c1[nH]nc(-c2cccs2)n1/N=C/c1cn(-c2ccccc2)nc1-c1ccc(Cl)cc1	-11	x	x	x	5	x	3674
CC(=NNC(=O)c1ccc(Br)cc1)c1cccnc1	x	1	6	3	x	2.6	x
CC(C)(C)c1ccc(CS(=O)CC(O)CO)cc1 (stereo not drawn)	-6	8	0	1	0	7.6	2145
Cc1ccsc1C(=O)OCC(=O)Nc1ccc(Cl)cn1	-36	6	11	-1	x	12	5695
CC(OC(=O)c1cc(S(=O)(=O)N2CCOCC2)ccc1F)C(=O)NC1CCCC1 (stereo not drawn)	-16	4	7	1	x	3.7	3454
COc1ccc(N(C)C(=S)Nc2ccc3nc(C)c(C)nc3c2)cc1	-17	0	5	13	-3	3.9	2681
Nc1nnc(SCC(=O)Nc2ccc(N3CCOCC3)cc2)s1	-20	4	1	-3	1	1.8	x
CCOC(=O)N1CCN(CC(O)COc2ccccc2C(C)CC)CC1 (stereo not drawn)	-24	-2	x	x	-7	1.8	2343
Cc1ccc(-n2ncc3c(=O)n(CC(N)=O)cnc32)cc1C	-26	5	10	-3	-3	2.3	3596
COc1cccc(-n2c(-c3ccoc3)nc3ccccc3c2=O)c1	-6	1	10	6	3	0.4	13367
NC(=O)c1ccccc1NC(=O)/C=C/c1ccccc1	-69	x	x	x	2	x	8794
CC(C)(C)NC(=O)Nc1ccc(Cn2cc(C(F)(F)F)ccc2=O)cc1	-33	4	-4	0	1	0.9	4118
CC(C)c1ccc2oc(-c3ccc(NC(=O)c4ncn[nH]4)cc3)nc2c1	-115	-6	0	10	3	-1.9	8057
COC(=O)c1ccc(CSc2nnc(Nc3ccccc3OC)s2)o1	x	6	12	11	5	7.3	x
O=C(c1cccs1)N1CCN(c2nc3ccc([N+](=O)[O-])cc3s2)CC1	-24	-4	-5	6	11	-1.7	4346
COc1ccc(C(=O)Nc2ncc3c(n2)CC(c2ccco2)CC3=O)cc1 (stereo not drawn)	-8	-3	16	12	7	-7.3	2887
O=C(Nc1ccc(Cl)c(Cl)c1)Nc1ccccc1C(=O)O	-54	-11	0	8	19	9.4	2134
CCc1ccc(CN(C)CC(=O)Nc2sccc2C#N)cc1	-7	1	2	1	-2	-0.4	2421
c1ccc2c3c(c(CN4CCCC4)cc2c1)COC3	-18	0	12	5	5	-0.5	5512
Cc1cc(N2CCCC2)ccc1NC(=O)CN1C(=O)NC(C)(c2ccccc2)C1=O (stereo not drawn)	-1	x	x	x	4	x	5619
O=C(O)c1ccc(Cn2cnc3c(=S)nc[nH]c32)cc1	-7	-1	9	9	x	1.0	3768
COc1ccc(-c2ccc(S(=O)(=O)NCC3CCCO3)cc2)cc1 (stereo not drawn)	4	1	-4	-3	4	0.2	2698
CN(C)c1nc(SCC(=O)Nc2ccc(Cl)c(Cl)c2)nc(N2CCOCC2)n1	-9	-25	2	-2	2	2.6	5708
O=C(Nc1ccc(F)cc1)C1COc2ccccc2O1 (stereo not drawn)	-45	6	2	-8	-3	0.2	3773
COc1ccc(CSc2nnc(C)n2N)cc1Br	-17	10	-3	0	0	15	3307
N#Cc1c2c(c(Nc3ccccc3)n3c1nc1ccccc13)CCC2	-8	-4	-5	1	-7	5.5	2894
Cc1ccc2[nH]c(O)c(N=NC(=O)C(C)n3cnc4ccccc4c3=O)c2c1 (stereo not drawn)	-9	1	-5	15	12	0.0	1995
O=C(NCCCCCc1nc2ccccc2[nH]1)c1ccccc1Cl	-1	12	4	7	-2	2.1	4987
CCn1c(=O)cc(OCC(=O)N2CCN(c3cccc(C(F)(F)F)c3)CC2)c2ccccc21	-18	-21	4	-2	-7	3.3	4304
CC(=O)c1ccc(S(=O)(=O)N2CCCc3ccccc32)cc1	-18	0	3	-2	2	3.9	4163

Looked up above:
CCn1c(=O)cc(OCC(=O)N2CCN(c3cccc(C(F)(F)F)c3)CC2)c2ccccc21 in Sa RN4220 lethal = 3.3
COc1ccc(-c2ccc(S(=O)(=O)NCC3CCCO3)cc2)cc1 (stereo not drawn) in Bead autofluor = 2698

Later entries:
SMILES	PrP UTR inh	Sa ugtP lethal	Mtb hypoxia inh	Mtb hypoxia inh growth	BJeLR lethal	Sa RN4220 lethal	Bead autofluor
Cc1ccc2c(COC(=O)C3CC(=O)N(c4ccc5c(c4)OCCO5)C3)cc(=O)oc2c1 (stereo not drawn)	-28	-2	6	9	x	1.5	3855
Nc1nnc(-c2ccc(Cl)c(Cl)c2)s1	-11	2	1	-8	-5	13	4366
COCCN(C(=O)CSc1nnc(-c2cccc(F)c2)n1N)c1c(N)n(CC(C)C)c(=O)[nH]c1=O	-1	3	1	5	2	2.0	u
O=C(CCCc1nc(-c2ccccc2Cl)no1)NCc1cccnc1	-15	-2	8	7	1	1.9	9300
C(=NNc1nc2ccccc2[nH]1)c1ccncc1	x	-4	11	6	x	1.5	x
Cc1cc(C)c(S(=O)(=O)Nc2ccc(C(N)=O)cc2)c(C)c1	8	9	11	-3	6	7.0	2496
Cc1cccc(-c2oc3ccc(-c4ccc5c(c4)OCO5)cc3c2C=Cc2ccc(N)cc2)c1	x	1	5	6	x	1.7	x
Cc1csc(SCC(=O)Nc2cccc(C)c2C)n1	-18	3	8	10	x	1.7	x
Brc1cnc(N2CCCCC2)nc1N1CCOCC1	-17	7	x	x	2	6.6	3034
CCN(CC)S(=O)(=O)c1ccc(N2CCOCC2)c(NC(=O)CN2C(=O)NC3(CCCC3)C2=O)c1	-27	2	9	4	x	8.9	3504
CC(C)C(C(=O)Nc1nccs1)c1ccccc1 (stereo not drawn)	-5	-1	x	x	-1	-4.3	3059
C=CCC1(C(=O)N(C)Cc2ccccc2)CCN(C(=O)OC(C)(C)C)CC1	-26	-13	9	4	-5	1.8	4026
O=C(NC(=S)NCc1ccccc1)c1cccs1	-8	-4	14	11	-9	2.1	4970
CCCCN(C(=O)CSc1ncn[nH]1)c1c(N)n(Cc2ccccc2)c(=O)[nH]c1=O	-13	0	3	1	x	1.0	6631
COc1ccc(-c2noc(CN(C)C(=O)c3ccoc3C)n2)cc1OC	-9	10	0	-14	-8	-0.7	4350
CC(=O)c1ccc(NC(=S)Nc2ccn(Cc3ccc(Br)cc3)n2)cc1	-32	-5	-6	10	2	1.9	4408
CCCCc1nnc(NC(=O)C(C)Sc2nc(N)cc(=O)[nH]2)s1 (stereo not drawn)	-9	3	4	3	3	4.0	21210*
CCn1c(=N)n(CC(=O)c2cccc(OC)c2)c2ccccc21	-9	8	2	10	2	15	3289
CC1CCc2cc(F)ccc2N1C(=O)CSc1nnc2c3cc(F)ccc3n(C)c2n1 (stereo not drawn)	-28	-1	-3	6	-3	2.5	2195
CCn1c([N+](=O)[O-])nc2c1c(=O)[nH]c(=O)n2C	-21	2	x	x	2	-0.6	4807
CCC(Sc1ccccn1)C(=O)Nc1cccc([N+](=O)[O-])c1 (stereo not drawn)	-10	8	9	0	3	-1.5	3350
COc1ccc(N2CSC3=C(C#N)C(c4cccs4)CC(=O)N3C2)cc1 (stereo not drawn)	-6	2	3	0	2	0.6	u
CCN(CC)S(=O)(=O)c1ccc(Cl)c(C(=O)NCC2CCCO2)c1 (stereo not drawn)	-16	6	2	-3	-7	3.6	7714
CC(=O)Nc1ccc(OC(=O)N(C)C)cc1	-26	8	-4	-2	-3	5.7	u
CC(=O)c1c(C)[nH]c(C(=O)COC(=O)C2(C)CC2(Cl)Cl)c1C (stereo not drawn)	-50	5	13	10	x	11	u
CCCCCOc1ccc(CSc2ncn[nH]2)cc1	-76	8	15	6	4	2.1	7170
Cc1c(C(=O)Nc2c(C)n(C)n(-c3ccccc3)c2=O)oc2c(Cl)cccc12	-10	-7	1	10	10	-2.4	6177
CCCN(CCO)Cc1ccc2ccccc2c1	-11	6	11	3	-13	2.4	5187
NCC(O)CN1CCN(Cc2ccccc2)CC1 (stereo not drawn)	-25	3	1	-2	-13	0.3	3496
